Assay outcomes: PubChem BioAssay, National Center for Advancing Translational Sciences (NCATS)
gsp ag: qHTS for Agonist of gsp, the Etiologic Mutation Responsible for Fibrous Dysplasia/McCune-Albright Syndrome: qHTS | gsp mutant cells, cAMP HTRF, 30 min; control for the full effect not named in the record | Potency, µM (titrated, usually from 76.9 µM), for inactives: at the highest dose activation (cAMP increase), usual class: activators | 340,000 compounds, 0.13% hits | AID 624287, 2012; active = well fitted activation curve with a large enough effect; inconclusive = small, poorly fitted or top-dose-only effect, or another doubt; inactive = no such curve, though single readings can be large or run the other way; cell line not stated here;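 note: phosphodiesterase inhibitor Ro 20-1724 added with compounds to block cAMP breakdown; potency is the fitted concentration of half-maximal effect; nearly all actives have a fitted effect of over 60% in size; about a fifth of the inactives were tested at one dose only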
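Cells stably selected in G418 were plated at 2000/well, grown 16-24 hr, then given compounds in DMSO with the PDE inhibitor […] (300 uM solution added) for 30 min at 37C; cAMP was read by HTRF.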
PINK1 modulator: A Quantitative High throughput Screen to Identify Chemical Modulators of PINK1 Expression. PINK1 immunofluorescence, high-content cytometry, 24 h. Potency, µM (titrated, usually from 76.6 µM), for the others: at the highest dose activation (PINK1 increase), hits mostly activators. 410,000 compounds, 0.2% hits. AID 624263, 2012; active = well fitted activation curve with a large enough effect; inconclusive = small, poorly fitted or top-dose-only effect; inactive = flat fitted curve, though single readings scatter; cell line not stated here;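 note: potency is the fitted concentration of half-maximal effect; % of control where 0% means no effect; nearly all actives have a fitted effect of over 65% in size; a mitochondrial uncoupler was the plate control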
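Readout is PINK1 immunofluorescence, quantified alongside mitochondrial, cell and nuclear markers by laser-scanning microplate cytometry. Cells from a stable line were exposed to compound titrations (5 concentrations) for 24 hours, with CCCP controls.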
Menin-MLL FL inh: qHTS Assay for Inhibitors Targeting the Menin-MLL Interaction in MLL Related Leukemias: Competition With Fluorescein Labeled MLL-derived Peptide; AID 1766, 2009; Fluorescence polarization, fluorescein-MLL peptide displacement from menin; 290,000 tested, under 10 active; FP activity change, % at 61.4 µM; inconclusive = falling polarisation curve, or a change in total fluorescence; inactive = total fluorescence flat and polarisation flat or rising; no compound was filed as active; the % refers to the polarisation; negative = inhibition;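 note: % of control where 0% means no effect; inhibitors lower the polarisation; unlabelled MLL peptide was the positive control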
Sfp inh: qHTS Assay for Inhibitors of Bacillus subtilis Sfp phosphopantetheinyl transferase (PPTase); 310,000 compounds, 3.5% hits; Potency, µM, for the others: max response, negative = inhibition, usual class: inhibitors; AID 1490, 2009; Biochemical Sfp PPTase activity, qHTS; active = well fitted inhibition curve with a large enough effect; inconclusive = small, poorly fitted or top-dose-only effect, or another doubt; inactive = no such curve, though single readings can be large or run the other way;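 note: the enzyme is Sfp with the accession as filed and its product quenches rhodamine fluorescence; potency is the fitted concentration of half-maximal effect; 0% = enzyme reaction without inhibitor and -100% = no enzyme wells; top concentration of the series not given in the record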
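Fluorescence-quenching assay: 15 nM Sfp-PPTase preincubated 15 min at room temperature with compound, then 5 uM rhodamine-CoA and 12.5 uM BHQ-2-labelled YbbR peptide added. Fluorescence (ex 525/em 598 nm) read at start and after 30 min; difference gives rate.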
D2 ag: Beta-Arrestin HTS for Positive Allosteric Modulators of the Human D2 Dopamine Receptor: Agonists | 360,000 compounds, 0.084% hits | DiscoveRx PathHunter D2 beta-arrestin, luminescence, 90 min; 100% = 57 uM dopamine signal | D(2) dopamine receptor (Homo sapiens), P14416 | activation, % (test concentration not listed); in the data active = activation above about 40%; inconclusive = about 15% to 40%; inactive = below about 15%; note: compound concentration not given in the record; the text of the record calls up to 30% inactive
Target sequence (P14416 whole entry, looked up): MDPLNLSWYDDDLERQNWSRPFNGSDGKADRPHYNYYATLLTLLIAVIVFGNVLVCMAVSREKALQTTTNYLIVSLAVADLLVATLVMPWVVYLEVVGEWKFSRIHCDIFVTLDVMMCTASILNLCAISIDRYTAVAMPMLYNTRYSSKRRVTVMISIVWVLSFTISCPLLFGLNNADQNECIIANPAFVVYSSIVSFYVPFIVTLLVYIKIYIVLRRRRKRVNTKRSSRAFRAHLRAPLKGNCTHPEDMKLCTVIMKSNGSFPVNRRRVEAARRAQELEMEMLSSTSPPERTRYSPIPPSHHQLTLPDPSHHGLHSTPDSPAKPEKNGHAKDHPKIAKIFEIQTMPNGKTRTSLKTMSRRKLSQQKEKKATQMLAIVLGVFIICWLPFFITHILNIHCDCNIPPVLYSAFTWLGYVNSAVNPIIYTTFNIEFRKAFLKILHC
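DiscoveRx PathHunter D2 beta-arrestin cells (2,100/well) attached overnight, then compound-stimulated 90 min at 37 C in HBSS/10 mM HEPES/0.1% Tween-20 buffer; beta-galactosidase complementation read by luminescence after 1 h at ambient temperature. Dopamine 57 uM final (EC100) as control.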
ClpP mod: qHTS Assay for Activators of ClpP; ATP-dependent Clp protease proteolytic subunit (Bacillus subtilis (strain 168)), P80244; purified B. subtilis ClpP, FRET peptide cleavage, 20 min; Potency, µM (highest dose often 57.5 µM), for inactives: at the highest dose activity change, negative = active; 340,000 compounds, 1.9% hits; active = well fitted falling curve with a large enough effect; inconclusive = small, poorly fitted or top-dose-only effect; inactive = no such curve, though single readings can be large or run the other way; note: potency is the fitted concentration of half-maximal effect; the source files actives as falling curves though it sought activators and does not explain the sign; nearly all actives have a fitted effect of over 65% in size; many hits overshoot -100%
Target sequence (P80244 whole entry, looked up): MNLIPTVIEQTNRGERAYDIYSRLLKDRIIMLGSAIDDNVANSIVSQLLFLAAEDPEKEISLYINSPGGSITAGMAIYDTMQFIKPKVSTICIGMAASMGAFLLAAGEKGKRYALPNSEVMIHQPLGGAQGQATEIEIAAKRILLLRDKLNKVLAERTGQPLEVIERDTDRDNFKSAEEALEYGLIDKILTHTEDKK
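FRET quenching reversal measured ClpP activation: 10 microg/mL B. subtilis ClpP at pH 8 with the FRET-FV decapeptide, read at 430 nm after 320 nm excitation. The 20-min minus 0-min signal was scaled between DMSO/no-enzyme wells and ADEP (5.8 microM final).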
gsp antagonist: qHTS for Antagonists of gsp, the Etiologic Mutation Responsible for Fibrous Dysplasia/McCune-Albright Syndrome: qHTS; gsp-mutant cells, cAMP HTRF, 30 min; control for the full effect not named in the record; Potency, µM (doses to about 76.9 µM), for the others: at the highest dose activity change, negative = inhibition, most hits filed as inhibitors; 340,000 compounds, 0.4% hits; active = falling curve of any shape with a large fitted effect; inconclusive = falling curve, mostly with a smaller effect; inactive = flat or rising curve; cell line not stated here;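 note: intracellular cAMP measured with PDE inhibitor Ro 20-1724 present during compound exposure; potency is the fitted concentration of half-maximal effect; % is set by controls: 0 for no effect and ±100 for the full control effect; nearly all actives have a fitted effect of over 65% in size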
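HTRF cAMP read-out (cAMP-d2 plus anti-cAMP antibody-K in lysis buffer, 30 min RT). Before lysis, cells are exposed to compounds with […] for 30 min at 37C in DPBS containing Ca/Mg, BSA and Tween 20.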
An asterisk follows results filed as active; u = inconclusive; x = no result given; [ ] = remark or other dose.

SMILES	gsp ag	PINK1 modulator	Menin-MLL FL inh	Sfp inh	D2 ag	ClpP mod	gsp antagonist
O=C(NC1CCN(Cc2ccccc2)CC1)c1ccc(Cn2c(=S)[nH]c3ccc(N4CCOCC4)cc3c2=O)cc1	-15%[15.4 µM]	-0.3%	0.3	-4%	-3.1	-1.4%	-1%
COCCn1c(-c2ccsc2)nc2c1c(=O)[nH]c(=O)n2CC(C)C	-4%	1.9%	-0.4	-5%	-2.3	u	-1%
CC1CCCCC1NC(=O)COC(=O)COc1ccc(Cl)cc1 (stereo unspecified)	6%	-1.0%	3.6	20%	0.4	-0.9%	3%
COc1ccc(CCNC(=O)CNC(=O)c2nn(-c3ccc(OC)c(OC)c3)c(=O)c3ccccc23)cc1OC	-7%	-1.2%	0.7	28%	2.7	x	-2%
CC(C)CC(NC(=O)C1CCC(C)CC1)C(=O)NCc1ccco1 (stereo unspecified)	-15%	0.8%	-3.6	10%	-0.9	-0.7%	3%
Cc1cc(NC(=O)CSc2nnc(-c3ccccc3F)n2N)no1	11%[15.4 µM]	0.8%	x	x	-2.7	-0.2%	2%
O=C(C1CC(c2ccc(F)cc2)=NO1)N1CCCc2ccccc21 (stereo unspecified)	7%	-4.1%	0.6	10%	-0.5	2.4%	-31%
CCCCNCCCOc1cccc(Cl)c1	21%	2.1%[38.3 µM]	2.2	9%	-2.2	0.6%	0%
O=C(CSCSCC(=O)NCC1CCCO1)NCC1CCCO1 (stereo unspecified)	u	4.1%[38.3 µM]	1.9	9%	-1.3	1.9%	15%
COc1cc(Br)c(C(C)NC(=O)c2ccccc2)cc1OC (stereo unspecified)	16%	4.3%[38.3 µM]	2.3	14%	0.8	1.3%	2%
CC(=O)c1nnn(-c2ccc(Cl)cc2C#N)c1C	-10%[15.4 µM]	0.3%	4.4	5%	-0.3	x	-16%
COc1ccc2c(-c3ccc(SC)cc3)c(-c3ccc(S(C)(=O)=O)cc3)sc2c1	u	-0.3%	x	x	-4.7	3.8%	-15%
O=C(CCc1nc2ccccc2c(=O)[nH]1)N1CCN(S(=O)(=O)c2cccc([N+](=O)[O-])c2)CC1	0%[15.4 µM]	2.0%	x	x	-4.4	x	5%
COc1ccc(/C(O)=C2/C(=O)C(=O)N(CCN(C)C)C2c2cccnc2)cc1OC (stereo unspecified)	-21%[15.4 µM]	-0.3%	-1.7	5%	-3.8	x	7%
CC(=O)N/C(N)=N/c1nc(=O)c2ccccc2s1	u	2.2%	9.5	4%	-4.9	u	5%
O=c1c(-c2cccs2)nc2cnc(N3CCNCC3)nc2n1C1CC1	x	2.6%	u	11%	x	x	x
COc1ccc(-n2c(Cn3nnc4ccccc43)n[nH]c2=S)cc1	20%	-2.7%	-1.1	-6%	4.1	0.5%	-5%
COc1cccc(C(CC(=O)NCCN2CCOCC2)NS(=O)(=O)c2ccc(C)cc2)c1OC (stereo unspecified)	-15%	-2.4%	2.0	4%	0.3	-14%	7%
CC(C)NC(=O)NC(=O)COC(=O)c1ccccc1Oc1ccccc1	7%	2.2%	-5.2	-3%	-0.4	0.0%	-13%
O=C(COc1ccccc1)Nc1nn[nH]n1	15%	-0.3%	-0.1	-1%	-3.2	-0.8%	6%
Cc1nn(Cc2c(F)c(F)c(F)c(F)c2F)c(C)c1NC(=O)c1ccc(COc2cc(Cl)ccc2Cl)cc1	17%	u	-3.1	u	-2.6	1.6%	-10%
O=c1[nH]c(C2CCN(S(=O)(=O)c3cccc(C(F)(F)F)c3)CC2)nc2c1nnn2Cc1cccc(F)c1	-13%[15.4 µM]	23%	6.8	9%	-11	0.3%	-2%
CCCn1nc(NS(C)(=O)=O)c2cc3cccc(C)c3nc21	-26%	-2.1%	9.5	-1%	-4.2	-1.4%	-12%
Cc1ccc(C)c(S(=O)(=O)Nc2cccc(-n3cnnn3)c2)c1	8%	-0.3%	-2.2	9%	3.9	-1.6%	-18%
COc1ccc(C(C)(O)c2nc(-c3ccccc3)cs2)cc1 (stereo unspecified)	x	11%	x	x	-2.8	0.3%	x
Cc1ccc(S(=O)(=O)NC(=O)c2ccccc2C)cc1	-23%	0.5%	x	19%	-1.9	0.2%	-5%
Cc1coc2c(C)c3oc(=O)c(CCC(=O)N[C@@H](C)C(=O)N[C@@H](Cc4ccccc4)C(=O)O)c(C)c3cc12	x	0.6%	2.9	-6%	-7.3	5.0%	-3%
COc1cc(OC)c(C(=O)Nc2cccc3ccccc23)cc1OC	u	3.4%	-3.6	u	-3.0	31%	-19%
CC1CCC(NC(=O)CCCn2sc3ccccc3c2=O)CC1 (stereo unspecified)	9%	2.3%	1.2	4%	-4.1	0.6%	-8%
CN1CCN(c2ccc(S(=O)(=O)N3CCCCC3)cn2)CC1	u	2.2%	2.7	17%	-3.8	-1.7%	7%
Cc1ccc(-c2nn(-c3ccccc3)cc2C(=O)NN2CCN(C)CC2)cc1	-2%[15.4 µM]	-1.5%	0.2	7%	-5.1	x	9%
COc1ccc(CN2CC(=O)N3[C@H]4c5cc(C)ccc5OC[C@@H]4[C@H](c4ccccc4)[C@]3(C)C2=O)cc1	x	2.5%	x	x	1.4	-1.0%	u
CCN(C[C@H]1N[C@@](C)(C(=O)OC)[C@H]2C(=O)N(C)C(=O)[C@@H]12)S(=O)(=O)c1ccc(F)cc1	x	0.2%	x	x	-3.1	-0.2%	8%
CCCCn1c(SCC(=O)N2CC(=O)Nc3ccccc32)nnc1-c1ccoc1C	7%	-2.1%	-8.3	-12%	-2.5	0.9%	-6%
COc1cccc(Oc2cn[nH]c2-c2ccc(O)cc2O)c1	-53%[inhibitor]	4.5%[38.3 µM]	2.8	11%	3.1	-1.4%	3%
O=C(CN1C(=O)CCSc2ccccc21)Nc1ccccc1	8%	3.2%[38.3 µM]	0.4	14%	-4.4	0.4%	4%
CC(=O)Nc1ccc2c(c1Br)Cc1ccccc1-2	4%[15.4 µM]	2.1%	x	x	-2.0	-1.2%	-9%
N/C(=N\O)c1ccccc1-n1cccc1	-29%	0.3%	-0.1	4%	-5.5	-4.2%	4%
CCNc1nc(NCC)nc(OCCNS(=O)(=O)c2cc(C)ccc2C)n1	20%	1.5%	5.0	11%	-0.3	0.8%	-9%
CCCc1cc(=O)n2[nH]c(C)nc2n1	-6%	0.9%	0.8	-1%	-3.8	0.5%	1%
Cc1ccc(S(=O)(=O)NCCNC(=O)CN2CCOCC2)cc1	8%[15.4 µM]	-0.5%	2.3	8%	-3.0	x	5%
COCCCn1c2nc3ccccc3nc2c2c(=O)n(-c3ccccc3OC)cnc21	-22%	-3.8%	0.7	20%	2.1	u	-3%
CCN(CC)S(=O)(=O)c1ccc(NC(=O)c2ccccc2N(C)S(C)(=O)=O)cc1	-23%	0.8%	2.5	13%	-4.3	-1.0%	3%
Cc1csc(N/N=C/c2c(F)cccc2Cl)n1	15%[15.4 µM]	0.4%	9.6	0%	-0.5	-0.8%	1%
CCCCc1n(CC(=O)c2ccc(Cl)cc2)c2ccccc2[n+]1C	-6%	3.3%	-3.8	10%	-2.1	x	9%
Oc1ccc(C23CC4CC(CC(C4)C2)C3)cc1O	7%	4.7%	-6.1	79µM*	2.1	-0.7%	-6%
COC(=O)c1c(-c2ccc(OC)cc2)sc2cc3c(cc12)OCO3	13%	1.1%	x	x	-1.0	4.1%	-6%
C[C@@H]1CN([C@@H](C)CO)C(=O)Cc2cc(NC(=O)Nc3ccc(C(F)(F)F)cc3)ccc2O[C@@H]1CN(C)S(=O)(=O)c1ccc(Cl)cc1	-14%	15%	x	x	5.8	-4.7%	1%
Cc1cc(C(=O)N/N=C/c2cc(Cl)cc([N+](=O)[O-])c2O)n[nH]1	7%[15.4 µM]	1.1%	7.8	12%	-3.4	x	6%
O=C(CCN1C(=O)/C(=C\c2ccccc2)SC1=S)N1CCCCC1	6%[15.4 µM]	-1.5%	-6.1	3%	0.2	x	3%
O=C(Nc1ccc(Cl)cc1)Nc1ccc(N2CCC(C(F)(F)F)CC2)nc1	0%[15.4 µM]	3.2%	2.4	11%	-3.2	x	12%
O=C(COC(=O)c1ccco1)NCC1CCCCC1	3%[15.4 µM]	-3.4%	x	x	-2.1	x	6%
Cc1occc1C(=O)Nc1cccc(C(=O)NCc2ccccc2)c1	6%	1.8%[38.3 µM]	4.0	5%	2.8	-0.9%	-5%
Cc1ccc(/C(O)=C/c2nc3cc(C)ccc3oc2=O)cc1	10%[15.4 µM]	-1.1%	u	-10%	3.6	x	11%
COc1cc2c(cc1OC)-c1nnc(-c3cccs3)n1C1(CCCC1)C2	-34%[inhibitor]	8.7%	4.0	2%	-1.0	u	-5%
O=C1CC(c2ccccc2)CC(O)=C1C=NCCCN1CCOCC1 (stereo unspecified)	-14%	0.4%[38.3 µM]	-1.5	16%	-2.4	1.6%	-9%
O=C(NCCN1CCOCC1)c1cccnc1SCc1ccccc1Cl	1%	0.5%	-2.0	1%	-1.9	x	9%
Cc1nn(CC2CC2)c(=O)n1-c1ccc(F)cc1	2%[15.4 µM]	0.1%	0.3	7%	-4.4	x	18%
CC(=O)Nc1ccc(N/C=C2/CCCC2=O)cc1	-2%	3.5%	2.1	16%	-6.3	x	-1%
O=C(CSc1nc(-c2cccs2)cc(C(F)(F)F)n1)Nc1cc(OCC(F)(F)F)cc([N+](=O)[O-])c1	u	1.6%	4.3	u	-1.3	-1.6%	-16%
